NS1 inh – blocks influenza NS1 protein function; S. cerevisiae slowed by influenza A NS1, growth recovery by OD600; Potency, µM (series often up to 46.1 µM), for the others: at the top dose activity, positive = more growth; hit rate 0.4% among 270,000; AID 2326; active means well fitted rising curve with a large enough effect; inconclusive means small, poorly fitted or top-dose-only effect; inactive means no such curve, though single readings can be large or run the other way; note: nearly all actives have a fitted effect of over 50% in size
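Read-out: OD600 growth recovery of NS1-expressing budding yeast. Cells grown overnight at 30C in -URA glucose medium, washed, resuspended and diluted 1:100 in 2% galactose assay medium, pH 6.0. Same strain lacking NS1 served as positive control.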
MARV entry inh – inhibitors of Marburg virus binding or cell entry | hit rate 1.8% among 300,000 | Marburg virus pseudotyped entry inhibition, cell reporter; control for the full effect not named in the record; about a third of the inactives were read at about 46 µM | AID 540276 | Potency, µM (titrated, usually from 37.8 µM), for the others: at the top dose activity change, negative = inhibition, usual class: inhibitors; active = well fitted inhibition curve with a large enough effect; inconclusive = small, poorly fitted or top-dose-only effect, or effect the other way; inactive = flat fitted curve, though single readings scatter; tested in HEK293 cells; about a fifth of its hits are not listed in these tables; note: % is set by controls: 0 for no effect and ±100 for the full control effect; luciferase read-out
Cruzain inh Det – inhibitors of Trypanosoma cruzi cruzain with detergent | Potency, µM, inactives show max response, negative = inhibition, hits mostly inhibitors | P25779 | purified cruzain, Z-FR-AMC fluorescence, 0.01% Triton | hit rate 0.43% among 200,000;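 note: plate controls were neutral wells for no effect and buffer without enzyme for full effect; nearly all actives have a fitted effect of over 40% in size; top concentration of the series not given in the record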
Target sequence (P25779 123-467 limits assumed): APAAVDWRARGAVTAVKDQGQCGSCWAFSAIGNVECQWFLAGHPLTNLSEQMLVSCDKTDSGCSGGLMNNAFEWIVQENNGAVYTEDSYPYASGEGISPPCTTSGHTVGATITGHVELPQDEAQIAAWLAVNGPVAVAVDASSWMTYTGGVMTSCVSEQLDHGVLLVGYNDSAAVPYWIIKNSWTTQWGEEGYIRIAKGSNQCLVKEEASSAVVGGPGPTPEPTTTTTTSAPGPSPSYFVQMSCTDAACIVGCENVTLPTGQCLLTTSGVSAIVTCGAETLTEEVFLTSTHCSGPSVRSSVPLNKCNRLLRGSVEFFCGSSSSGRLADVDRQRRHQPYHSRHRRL
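Cysteine protease activity tested under reducing, mildly acidic conditions (100 mM sodium acetate pH 5.5, 5 mM DTT) plus 0.01% Triton X-100. Cruzain 1.5 nM; substrate Z-FR-AMC 2 uM; 15 min compound preincubation at room temperature.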
Lassa entry inh – Lassa virus entry inhibition. AID 540256. hit rate 1.2% among 300,000. Lassa virus pseudotype entry inhibition, cell reporter; control for the full effect not named in the record. Potency, µM (top dose mostly 37.9 µM), for inactives: top-dose activity change, negative = inhibition, actives largely listed as inhibitors; active means well fitted inhibition curve with a large enough effect; inconclusive means small, poorly fitted or top-dose-only effect, or effect the other way; inactive means flat fitted curve, though single readings scatter; tested in HEK293 cells; note: % is set by controls: 0 for no effect and ±100 for the full control effect; nearly all actives have a fitted effect of over 50% in size; luciferase read-out
RE007 growth inh – less growth of the S. pombe RE007 Vpr strain; S. pombe RE007 Vpr strain, BacTiter-Glo ATP luminescence, 24 h; control for the full effect not named in the record; hit rate 0.21% among 360,000; Potency, µM (titrated, usually from 92.2 µM), for inactives: at the highest dose activity change, negative = less growth; active = well fitted falling curve with a large enough effect; inconclusive = small, poorly fitted or top-dose-only effect; inactive = no such curve, though single readings can be large or run the other way;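 note: % is set by controls: 0 for no effect and ±100 for the full control effect; nearly all actives have a fitted effect of over 50% in size; the assay follows cell death caused by Vpr and the record does not say whether a fall means rescue or toxicity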
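Fission yeast strain RE007, carrying one chromosomally integrated HIV-1 vpr copy, was seeded at OD 0.01 in PMG+AL medium with 23 nL pinned compound. After 24 h at 30 °C and 99% humidity, viability was read by BacTiter-Glo luminescence.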
SARS PLP yeast – SARS-CoV PLP inhibition in yeast | S. cerevisiae expressing SARS-CoV PLpro, growth rescue; control for the full effect not named in the record | Potency, µM (titrated, usually from 32.9 µM), for inactives: at the highest dose activity, positive = growth rescue | hit rate 0.19% among 330,000; active means well fitted rising curve with a large enough effect; inconclusive means small, poorly fitted or top-dose-only effect; inactive means no such curve, though single readings can be large or run the other way; note: 0% is about no effect; nearly all actives have a fitted effect of over 55% in size; growth read by luminescence after 48 h
Cruzain inh noDet – blocks cruzain activity in detergent-free assay; P25779; purified cruzain, Z-FR-AMC fluorescence, no detergent; Potency, µM, inactives show max response, negative = inhibition, most hits filed as inhibitors; hit rate 2.3% among 200,000; AID 1476;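 note: plate controls were enzyme without inhibitor for no effect and buffer without enzyme for full effect; nearly all actives have a fitted effect of over 40% in size; top concentration of the series not given in the record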
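Detergent-free condition (0.00005% Triton X-100) in acetate buffer pH 5.5 with DTT. 1.5 nM enzyme and compound were pre-mixed 15 min, then 2 uM Z-FR-AMC substrate added; reaction progress from fluorescence change between first and third reads (60 s).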
StopGo reporter – lowers the luciferase signal of an FMDV 2A StopGo reporter | human cells with a luciferase reporter of 2A StopGo recoding; control for the full effect not named in the record | hit rate 1.2% among 410,000 | Potency, µM (doses to about 57.9 µM), without a hit: at the highest dose signal change, negative = less light; active = well fitted falling curve with a large enough effect; inconclusive = small, poorly fitted or top-dose-only effect; inactive = no such curve, though single readings can be large or run the other way; tested in HEK293T cells; note: % is set by controls: 0 for no effect and ±100 for the full control effect; nearly all actives have a fitted effect of over 45% in size; luciferase light after 4 h
An asterisk follows results filed as active; ? = inconclusive; / = no result given; & = joins results of further samples; [ ] = dose if it differs, or a comment. Unless noted, calls come from the whole dose curve; as a rule, active = well fitted curve in the direction sought with a large enough effect; inconclusive = small, poorly fitted or top-dose-only effect, or another doubt; inactive = no such curve, though single readings can be large; an effect the other way counts as inactive or inconclusive. Potency is the fitted concentration of half-maximal effect.

SMILES	NS1 inh	MARV entry inh	Cruzain inh Det	Lassa entry inh	RE007 growth inh	SARS PLP yeast	Cruzain inh noDet	StopGo reporter
O=C(CN(CCc1ccccc1)C(=O)CNS(=O)(=O)c1ccc(F)cc1)NCc1ccco1	-6.9%	?	2.9%	0.7%	16.6%	-7.9%	9.4%	-22.8%
CCCN(C(=O)c1c(C)oc2ncn(CC(C)C)c(=O)c12)c1ccccc1C	/	/	-0.5%	26.0%[46.1 µM]	/	/	17.8%	-1.7%
COC(=O)c1ccccc1Sc1ncnc2onc(C)c12	2.3%	?	/	-9.6%	3.1%	0.1%	/	28.2µM*
CC(Sc1nnc(-c2cccs2)n1C1CC1)C(=O)NCC1CCCO1 (stereo not drawn)	/	6.4%	/	5.6%	-0.9%	4.6%	/	-6.2%
CCN(CC)c1ccc(S(=O)(=O)N2CCOCC2)cc1NC(=O)COC(=O)/C=C/c1ccc(O)c(OC)c1	/	-8.3%	/	?	5.0%	/	/	14.2%
CCN(CC)C(=O)Sc1cccc2cccnc12	-0.3%	5.7%	2.8%	2.2%	3.1%	0.8%	8.0%	/
Cc1ccc(S(=O)(=O)N(C)c2ccc(C(=O)N3CCc4ccccc4C3)cc2)cc1	-0.4%	?	/	11.2µM*	7.2%	1.4%	/	-12.3%
CC1CCN(CC(O)COC2CCC(C(C)(C)C)CC2)CC1 (stereo not drawn)	-44.6%	?	3.7%	-26.2%	1.7%	-7.8%	-7.1%	-4.1%
O=C(NCC1CCCO1)c1ccc(NC(=O)C2CCCCC2C(=O)O)cc1 (stereo not drawn)	0.4%	1.4%	2.4%	3.0%	17.6%	3.2%	-11.3%	0.5%
C/C=C/c1ccc(OCCCCOc2ccccc2F)c(OC)c1	-33.3%	8.2%	-3.5%	-8.2%	-2.1%	-15.7%	10.2%	1.4%
Cc1cc(=O)[nH]c2nnc(SCCC(C)C)n12	/	/	-1.2%	13.1%[46.1 µM]	/	/	8.5%	5.8%
Cc1ccc(NC(=O)CSCC(=O)N(CCC(C)C)c2c(N)n(Cc3ccccc3)c(=O)[nH]c2=O)cc1	/	?	/	-27.3%	5.4%	-2.6%	/	0.0%
NC(N)=Nc1ccc(C=C2C=Cc3ccccc32)cc1	/	?	/	?	-15.0%	/	/	12.6%
FC(F)(F)c1cnc(Oc2ccccc2-c2nnc(-c3ccc(Cl)cc3)o2)c(Cl)c1	-1.0%	-3.4%	-3.2%	-0.6%	-15.4%	-8.2%	-1.3%	-16.3%
COc1cc(CNC(C)(C)C)ccc1OCC(=O)NC(C)(C)C	0.5%	6.2%[46.1 µM]	/	5.6%	5.7%	0.2%	/	-5.9%
O=C(Cc1ccccc1)N/N=C/c1cccc([N+](=O)[O-])c1	/	?	/	8.3%	0.0%	-4.4%	/	-12.9%
COc1ccc(C(=O)CCc2nc3ccccc3s2)cc1	-9.4%	28.6%	-6.0%	6.5%	5.8%	-6.9%	-9.8%	-0.5%
O=C(O)C1CCCCC1C(=O)NCc1ccncc1 (stereo not drawn)	1.3%	?	0.4%	-17.2%	0.1%	11.1%	-3.4%	-11.9%
CCc1ccccc1NC(=O)Cn1nnc(-c2cccs2)n1	6.4%	-21.4%	5.6%	21.9%	1.3%	2.1%	-21.4%	/
Cc1ccccc1C(=O)NC1CCSC1=O (stereo not drawn)	-4.2%	/	/	/	5.4%	1.3%	/	-5.5%
CC(C)c1cccc(C(C)C)c1NC(=O)CCl	0.6%	?	/	?	8.5%	1.2%	/	?
O=C(CCc1nc2ccccc2c(=O)[nH]1)OCC(=O)c1ccc(C2CCCCC2)cc1	4.9%	?	-5.0%	-0.2%	-2.8%	-2.6%	15.8µM*	-11.4%
CC1=C/C(=C(/c2cc(C)c(O)c(Br)c2)c2ccccc2S(=O)(=O)O)C=C(Br)C1=O	-0.5%	-9.7%[46.1 µM]	/	-3.2%	?	6.2%	/	-55.2%
N#Cc1c(NC(NC(=O)c2ccco2)C(=O)c2ccccc2)sc2c1CCCC2 (stereo not drawn)	5.3%	-17.0%	-4.0%	-22.6%	3.9%	-14.8%	25.1µM*	/
CCCn1c(=O)c2c(c3ccccc31)OCC(=O)N2	9.5%	11.3%	2.1%	16.9%	15.6%	1.4%	-1.9%	-12.3%
CC(=O)Nc1ccc(NS(=O)(=O)c2ccccc2)c2ccccc12	8.2%	3.8%[46.1 µM]	/	-0.3%[46.1 µM]	2.1%	-3.3%	/	-7.1%
Cn1nc(C(F)(F)F)c(/C=N/OC(=O)c2ccccc2)c1Sc1ccc(Cl)cc1	18.0%	?	0.0%	?	14.4%	-2.1%	?	?
CCOC(=O)C1=C(C)n2c(s/c(=C3\C(=O)Nc4ccccc43)c2=O)=NC1c1ccc(OC)cc1 (stereo not drawn)	?	-4.3%	0.1%	13.4%	-8.0%	2.5%	4.8%	?
COc1ccc(N2CCN(C(=O)CCNS(=O)(=O)c3ccc4c(c3)CCC(=O)N4)CC2)cc1	?	-1.4%	1.0%	0.8%	4.1%	-22.2%	-4.5%	-6.5%
C=CCn1c(SCC(=O)Nc2ccc(C)cc2C)nnc1-c1cccnc1	-60.7%	-10.1%	5.2%	11.3%	-3.0%	-8.2%	10.1%	-25.0%
COCCCN(C(=S)Nc1cc(Cl)cc(Cl)c1)C(C)c1ccncc1 (stereo not drawn)	-26.7%	?	-7.4%	?	1.2%	17.6%	18.2%	18.3%
Cc1cccc(C)c1NC(=O)NC1(C(=O)N2CCOCC2)CCCCC1	/	-3.5%	/	2.5%	-1.9%	1.2%	/	-16.5%
CCn1c(C(=O)N2CCCC(C(=O)NCCc3ccc(C)cc3)C2)cc2sccc21 (stereo not drawn)	-31.8%	?	-6.4%	?	9.9%	0.0%	?	/
COc1ccc(CCNC(=O)COc2cc(=O)n(C)c3ccccc23)cc1OC	/	-8.7%[46.1 µM]	/	0.6%	-7.3%	2.0%	/	-3.1%
COc1cccc(C2c3cc4c(cc3OC(N3CCCC3)C2C)OCO4)c1O (stereo not drawn)	/	-29.5%	/	?	15.6%	/	/	-8.3%
O=C(Nc1cc(-c2ccccc2)cs1)c1ccco1	/	?	/	?	?	-0.4%	/	1.1%
NS(=O)(=O)c1cc(C(=O)OCC(=O)c2ccccc2)c(Cl)cc1Cl	-3.4%	-19.8%[46.1 µM]	/	-28.0%	0.8%	0.0%	/	26.3%
Cc1cc(C)c(C#N)c(SCC(=O)Nc2ccc3c(c2)OCO3)n1	-0.3%	?	-3.1%	22.0%	-4.9%	-2.5%	-4.3%	44.0%[activator]
COCC(=O)NC1CCN(S(=O)(=O)c2ccc(C(=O)O)cc2)CC1	12.7%	13.8%	5.4%	2.1%	-0.3%	5.3%	-6.3%	-0.8%
COc1ccc(C(C)N2CC34C=CC(O3)C(C(=O)O)C4C2=O)cc1 (stereo not drawn)	1.8%	-1.4%	-2.3%	-1.7%	0.2%	/	14.6%	11.4%
COC(=O)c1ccc(COc2ccccc2/C=C(\C#N)C(=O)NC(C)C)cc1	5.0%	-3.4%	-0.5%	-8.5%	-13.2%	4.6%	10.6%	?
CC(=O)N1c2ccc(S(=O)(=O)NCC3CCC(C(=O)N4CCC(C)CC4)CC3)cc2CC1C (stereo not drawn)	-2.9%	7.0%[46.1 µM]	/	-3.0%[46.1 µM]	-3.9%	-9.4%	/	-1.7%
CN1CCN(S(=O)(=O)c2ccc(Br)c3ccccc23)CC1	2.1%	/	/	/	0.3%	-3.4%	/	-8.0%
O=C(O)CCCSc1nccn1-c1ccccc1	1.2%	13.5%[46.1 µM]	/	-0.3%	0.6%	1.3%	/	-5.7%
Cc1ccc(CN2CCN(Cc3cccc(OCCO)c3)CC2CCO)o1 (stereo not drawn)	8.1%	-6.2%[46.1 µM]	/	4.9%	-0.7%	0.0%	/	-1.0%
CC(=O)NC(C(=O)c1ccccc1)N1CCCCC1 (stereo not drawn)	-11.8%	-3.5%[46.1 µM]	/	?	6.4%	9.6%	/	-4.8%
Cn1cc(S(=O)(=O)N2CCOCC2)cc1C(=O)O	/	0.3%[46.1 µM]	/	-3.6%[46.1 µM]	-6.0%	-0.8%	/	5.4%
CC1CCN(C(=S)NC(=O)c2ccccc2Br)CC1	5.0%	-8.4%	/	-0.7%	10.1%	2.5%	/	-4.7%
COc1ccc(N2CCN(C(=O)c3cn(C)c4ccc(S(=O)(=O)N5CCOCC5)cc4c3=O)CC2)cc1	-5.9%	19.6%&19.6%[46.1 µM]	-5.4%	9.0%[46.1 µM]	5.4%	-3.2%	14.7%	-4.7%&4.8%
COCCN(C(=O)c1ccc(C)o1)c1c(N)n(CC(C)C)c(=O)[nH]c1=O	/	1.1%	/	-5.8%	-5.2%	-3.9%	/	-1.6%
COCCN1Cc2cc(=O)n3c([nH]c4ccccc43)c2C1=N	/	22.4%	/	?	-17.0%	-4.4%	/	14.7%
CC1CC1C(=O)Nc1nc(-c2ccc(Cl)s2)cs1 (stereo not drawn)	/	-43.8%[46.1 µM]	/	/	11.7%	-0.4%	/	-15.4%
Oc1ccccc1-c1nnc2n1CCCCC2	6.2%	18.5%	/	13.6%	15.1%	0.2%	/	0.4%
O=C(Nc1nnc(SCc2c(Cl)cccc2Cl)s1)c1cccc([N+](=O)[O-])c1	8.1%	3.7%[46.1 µM]	/	-9.0%	1.1%	0.5%	/	-22.2%
Cc1ccc(-n2nc(C)c3c(C)cc(=O)n(CC(=O)Nc4ccc(C(C)C)cc4)c32)cc1	/	/	0.6%	?	/	/	-0.4%	-2.6%
CS(=O)(=O)N(CCc1ccccc1)CC(=O)NCc1ccco1	-2.0%[9.22 µM]	3.6%	4.8%	-13.1%	-10.7%	5.0%	9.6%	11.8%
Cc1ccccc1-n1c(O)cc(=O)[nH]c1=S	4.8%	3.9%[46.1 µM]	/	-9.4%	-4.4%	-1.6%	/	12.0%
CCOC(=O)CN1C(=N)N(c2nc(NC(C)C)nc(NC(C)C)n2)CC1=O	4.9%	8.3%	-4.6%	-28.8%	-7.4%	9.4%	-7.4%	-1.4%
O=C(CN1CCN(Cc2cccc(F)c2)CC1)Nc1ccccc1F	-1.0%	/	/	/	5.2%	-2.9%	/	-3.0%
